# Screening results as filed in PubChem BioAssay.
# HPGD block: inhibitors of human 15-hydroxyprostaglandin dehydrogenase (HPGD) | P15428 | Potency, µM, inactives show at the highest dose activity change, negative = inhibition, most hits filed as inhibitors | actives 4.3% (n = 150,000) | purified HPGD, NADH fluorescence kinetic, PGE2 substrate | AID 894; active = well fitted inhibition curve with a large enough effect (not every such curve was filed as active); inconclusive = small, poorly fitted or top-dose-only effect, or another doubt; inactive = no such curve, though single readings can be large or run the other way;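 further: top concentration of the series not given in the record; plate controls included wells without enzyme; inactives centre near -10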
# Target sequence (P15428 whole entry, looked up): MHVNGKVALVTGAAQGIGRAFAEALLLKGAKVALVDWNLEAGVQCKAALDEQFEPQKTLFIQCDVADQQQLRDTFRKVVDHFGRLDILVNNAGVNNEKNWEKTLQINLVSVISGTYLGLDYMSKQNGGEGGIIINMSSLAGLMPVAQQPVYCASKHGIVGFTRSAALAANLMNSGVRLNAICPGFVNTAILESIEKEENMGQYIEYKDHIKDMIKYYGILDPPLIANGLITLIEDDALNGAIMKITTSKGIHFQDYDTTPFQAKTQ
#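 20 nM HPGD preincubated 15 min at room temperature with compound in 50 mM Tris-HCl pH 8, 0.01% Tween 20. Started with 1 mM NAD+ and 30 uM prostaglandin E2; NADH fluorescence (360/450 nm) read 5 times over 30-s intervals, last minus first.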
# * marks the source's active call; other numbers are inactive results; ? = inconclusive; [ ] = remark or other dose. On the % scale 0 is the no-effect control and ±100 the full control effect; potency means the concentration at half of the fitted maximal effect. The list is partial, so the mix of outcomes need not match the whole.
# A first look:
SMILES,HPGD block
COc1cc(OC)cc(C(=O)NC(=S)NCc2ccco2)c1,-13%
Cc1ccc2[nH]c3c(c2c1)CN(C(=O)CN1CCSCC1)CC3,-9%
CC(CC(=O)Nc1cc([N+](=O)[O-])ccc1Cl)c1ccccc1 (centres undefined),-11%
O=C(NCc1ccc2c(c1)OCO2)C1COc2ccccc2O1 (centres undefined),4.5µM*
CN(C)c1nc2c(c(=O)n(C)c(=O)n2C)n1Cc1ccccc1,-13%
CCOc1ccc(Nc2nc(Cl)nc(N3CCN(c4ccc(OC)cc4)CC3)n2)cc1,-9%
Nc1ccc(Br)cc1C(=O)O,-9%
O=C(NCc1ccco1)C(c1ccccc1)N(Cc1ccccc1)C(=O)Cn1nnc2ccccc21 (centres undefined),-2%
CCOc1ccc(C2C(C#N)=C(N)Oc3cc(C)n(CCN4CCOCC4)c(=O)c32)cc1OCC (centres undefined),0%
O=c1cc(-c2ccccc2)[nH]c2[nH]n(-c3ccccc3)c(=O)c12,-8%
CCOc1ccccc1/C=N/NC(=O)c1cccc(Cl)c1,-10%
CC1CCN(S(=O)(=O)c2cccc(S(=O)(=O)N3CCOCC3)c2)CC1,-4%
O=C(c1cnccn1)N1CCC[C@@]2(CCN(c3ncccn3)C2)C1,-11%
CC(=O)NC(CCS(C)(=O)=O)C(=O)Nc1cc(Cl)ccc1Cl (centres undefined),-5%
COCCCNc1nc2ccccc2nc1NS(=O)(=O)c1cccs1,-26%
O=C(COc1ccc(C(=O)c2ccccc2)cc1)NCc1ccc(F)cc1,-24%

# All compounds of this part, from the start:
SMILES,HPGD block
COc1cc(OC)cc(C(=O)NC(=S)NCc2ccco2)c1,-13%
Cc1ccc2[nH]c3c(c2c1)CN(C(=O)CN1CCSCC1)CC3,-9%
CC(CC(=O)Nc1cc([N+](=O)[O-])ccc1Cl)c1ccccc1 (centres undefined),-11%
O=C(NCc1ccc2c(c1)OCO2)C1COc2ccccc2O1 (centres undefined),4.5µM*
CN(C)c1nc2c(c(=O)n(C)c(=O)n2C)n1Cc1ccccc1,-13%
CCOc1ccc(Nc2nc(Cl)nc(N3CCN(c4ccc(OC)cc4)CC3)n2)cc1,-9%
Nc1ccc(Br)cc1C(=O)O,-9%
O=C(NCc1ccco1)C(c1ccccc1)N(Cc1ccccc1)C(=O)Cn1nnc2ccccc21 (centres undefined),-2%
CCOc1ccc(C2C(C#N)=C(N)Oc3cc(C)n(CCN4CCOCC4)c(=O)c32)cc1OCC (centres undefined),0%
O=c1cc(-c2ccccc2)[nH]c2[nH]n(-c3ccccc3)c(=O)c12,-8%
CCOc1ccccc1/C=N/NC(=O)c1cccc(Cl)c1,-10%
CC1CCN(S(=O)(=O)c2cccc(S(=O)(=O)N3CCOCC3)c2)CC1,-4%
O=C(c1cnccn1)N1CCC[C@@]2(CCN(c3ncccn3)C2)C1,-11%
CC(=O)NC(CCS(C)(=O)=O)C(=O)Nc1cc(Cl)ccc1Cl (centres undefined),-5%
COCCCNc1nc2ccccc2nc1NS(=O)(=O)c1cccs1,-26%
O=C(COc1ccc(C(=O)c2ccccc2)cc1)NCc1ccc(F)cc1,-24%
CC(NC(=O)c1ccccc1Br)c1nnc(SCc2ccc([N+](=O)[O-])cc2)n1C (centres undefined),-3%
CCCCCC(=O)NC(=S)Nc1ccccc1C(=O)OC,-10%
CC(=O)OC[C@H]1O[C@@H](O/N=C(\C)CCN2CCCCc3nc(C)c(C)cc32)[C@H](OC(C)=O)[C@@H](OC(C)=O)[C@@H]1OC(C)=O,-4%
Cc1cc(=O)n2nc(N3CCCC(C(=O)N4CCN(c5ccccc5)CC4)C3)sc2n1 (centres undefined),-3%
CCc1nc(SCC(=O)Nc2cc(C)on2)n[nH]1,-6%
c1cnc2ccc(C(c3nnnn3C3CCCCC3)N3CCCCC3)cc2c1 (centres undefined),-13%
O=C(c1ccco1)N(Cc1cc2ccccc2[nH]c1=O)CC1CCCO1 (centres undefined),-8%
CCOc1cc(C2NC(=O)NC(C)=C2C(C)=O)cc(Cl)c1OCC(=O)O (centres undefined),-9%
COC(=O)N1CCC2(CC1)CN(c1ccc(-c3ccccc3)cc1)C2,-13%

# Next results follow.
SMILES,HPGD block
NS(=O)(=O)c1ccc(CCNC(=O)CSc2ccc(Cl)cc2)cc1,-4%
CC12CCC(c3c(CO)nn(-c4ccccc4)c31)C2(C)C (centres undefined),0%
CC12CCC(C(=O)Nc3cccc(Cl)c3)(C(Br)C1=O)C2(C)C (centres undefined),-3%
CCCCOC(=O)Nc1ccc(S(=O)(=O)Nc2cc(C)nc(C)n2)cc1,-7%
O=C(/C=C/c1ccccc1Cl)NCc1ccco1,14µM*
CCCN(CCC)CCNC(=O)C(NS(=O)(=O)c1ccc2c(c1)CCC(=O)N2)c1ccccc1 (centres undefined),-12%
N#Cc1nc(Cc2ccccc2)oc1NCCN1CCOCC1,0%
CCOC(=O)Nc1sc2c(c1C(=O)OCC)CCC2,-20%
O=C(CSc1nnc(-c2ccc(F)cc2)o1)c1ccc2c(c1)OCCO2,-11%
CCCc1c(OCCCOc2ccc(OCC(=O)O)cc2)ccc(CC=O)c1O,-4%
CCc1ccccc1NC(=O)CC(O)(C(=O)OC)C(F)(F)F (centres undefined),1%
COc1ccccc1-c1c(C)nn2c(N3CCN(Cc4ccccc4)CC3)cc(C)nc12,?
CCOC(=O)c1ccc(NC(=O)CSc2nnc(Cn3c(=O)sc4ccccc43)n2C)cc1,-4%
O=C(Nc1ccccc1)N1CCCC2(CCN(C(=O)c3cccc(F)c3)CC2)C1,-6%
O=C1NC(Cc2c[nH]c3ccccc23)C(=O)N1Cc1cccc2ccccc12 (centres undefined),-7%
CCOC(=O)Nc1cccc(Cl)c1C,-18%
CCn1c(SCC(=O)Nc2cc(OC)ccc2OC)nnc1C1CCCCC1,-18%
Cc1c(C(=O)NCc2ccco2)cccc1[N+](=O)[O-],?
COCC(=O)N(C)C1(c2nnnn2CCOC(=O)Nc2ccc(Cl)cc2)CCCC1,0%
COc1ccc(C2(CNC(=O)c3ccc(OC)c([N+](=O)[O-])c3)CCOCC2)cc1OC,-3%
COCCN1CN=C(Nc2nc(C)c3ccc(C)cc3n2)NC1,-2%
Cc1ccc(N2C(=O)c3ccccc3C2Nc2ccccc2)nc1 (centres undefined),-1%
COc1ccc(CNC(=O)CN(C2CCCCC2)S(C)(=O)=O)cc1,-2%
O=C(O)CCCC(=O)Nc1ccccc1Br,-15%
Cc1cccc(-n2c(CCc3ccccc3)nnc2SCC(=O)c2ccccc2)c1,-12%

# (cont.)
SMILES,HPGD block
CCOc1cc(NC(=O)C2CCCO2)c(OCC)cc1NC(=O)C1CC1 (centres undefined),-15%
Cc1ccc(S(=O)(=O)Nc2ccc(C(OC(=O)c3ccccc3[N+](=O)[O-])(C(F)(F)F)C(F)(F)F)cc2)cc1,-25%
c1ccc2c(Nc3nc(N4CCOCC4)c4ccccc4n3)cccc2c1,?
Cn1c(=O)[nH]c(=O)c2c1nc(N1CCCC1)n2CCSc1nc2ccccc2[nH]1,3%
CCN(CC)c1ccc(C=Nc2cc(C)cc(C)c2)c(O)c1,-23%
CC1CC(C)CN(c2nc3c(c(=O)n(C)c(=O)n3C)n2CCSc2ncccn2)C1 (centres undefined),-8%
O=C(/C=C/Nc1ccccc1)c1ccccc1,-14%
CCC(C)NC(=O)c1ccccc1NC(=O)c1ccc(CSc2ccc(C)cc2)cc1 (centres undefined),-24%
C/C(=N/NC(=O)C1CCCCC1)c1ccc([N+](=O)[O-])cc1,-4%
CCN(CC)C(=O)Cn1cnc2c1c(=O)n(C)c(=O)n2C,-14%
O=c1ccn(-c2cccc(C(F)(F)F)c2)nc1-c1ccn(-c2ccccc2F)n1,-12%
COc1ccc(C(=O)N/N=C/c2cc3ccccc3[nH]c2=S)cc1,1.3µM*
CCCOC(=O)c1c(NC(=O)c2cnn3c2NC(c2ccccc2)CC3C(F)(F)F)sc2c1CCCC2 (centres undefined),27%
Cc1cc2nc(NC3=NCN(CCN4CCOCC4)CN3)nc(C)c2cc1C,-1%
O=C(c1ccccc1)c1ccc(OCC(O)CN2CCN(S(=O)(=O)N3CCCCC3)CC2)cc1 (centres undefined),-9%
CCOC(=O)c1sc2ncn(C(C)C(=O)OC)c(=O)c2c1C (centres undefined),-5%
CC1CCCCN1C(=O)CSc1nnc(CSc2ncccn2)n1C (centres undefined),-10%
C=C1C2(C(=O)Nc3nccs3)CCC(C2)C1(C)C (centres undefined),-12%
CCN1C(=O)CC(C(=O)NC)SC1=Nc1cc(Cl)c(O)c(Cl)c1 (centres undefined),-3%
CCOc1ccccc1NS(=O)(=O)N(C)C,-7%
NC(=O)COC(=O)c1oc2ccccc2c1CSc1ccc(Cl)cc1,-4%
O=C(Nc1ccccc1OC(F)F)C1CCCN1C(=O)c1cccs1 (centres undefined),-12%
O=C(CNC(=O)c1ccccc1)OC(C(=O)Nc1cc(C(F)(F)F)ccc1Cl)c1ccccc1 (centres undefined),-7%
CCCOc1ccc(N2C(=O)C3ON(c4ccccc4)C(CCC)C3C2=O)cc1 (centres undefined),-15%
O=C(CCC(NC(=O)OCc1ccccc1)C(=O)OCc1ccccc1)NCC(=O)OCc1ccccc1 (centres undefined),-8%

# (list continues)
SMILES,HPGD block
Cc1ccc(Cn2c(-n3nc(C)cc3C)nc3c2c(=O)[nH]c(=O)n3C)cc1,-8%
Cc1cccc(N2CCc3c2nc2ccc(Br)cc2c3N)c1,36%[activator]
Cc1cc(=O)[nH]c(N/N=C/c2cccs2)n1,-14%
O=C(Nc1cccc2c1C(=O)NC2=O)c1ccc(S(=O)(=O)N2CCCC2)cc1,?
Cc1cc(Nc2ccc3ccccc3c2)n2ncnc2n1,-16%
C=CCn1c(SCC(=O)Nc2sccc2C#N)nc2sc(C)c(C)c2c1=O,-22%
COc1ccc(-c2c(C#N)c(C)nc3c2C(=O)c2ccccc2-3)cc1,-18%
CCCn1c(C)cc(=O)c2cc(NC(=O)c3ccccn3)ccc21,-7%
Cc1ccn2c(NC3CCCCC3)c(C)nc2c1,-7%
CCN(CC)c1nc(C#N)cc(-c2ccc(OC)cc2)n1,?
CCn1c(=O)c(C(=O)NNS(=O)(=O)c2ccc(Cl)cc2)c(O)c2ccccc21,-23%
CC(=O)NC1C(=O)Nc2c1cccc2C(F)(F)F (centres undefined),-5%
CCCn1c(N)[n+](CC(=O)c2ccco2)c2ccccc21,-11%
CCOC(=O)C(Sc1n[nH]c(N)n1)c1ccccc1 (centres undefined),-19%
Cn1c(CNc2nc3ccccc3n2CCN2CCCCC2)nc2ccccc21,-5%
O=C(NCc1ccncc1)c1cnccn1,-2%
O=C(CN1CCCC1)Nc1nnc(-c2cccs2)s1,?
Cc1ccc2c(COC(=O)CC3Sc4ccccc4NC3=O)cc(=O)oc2c1C (centres undefined),-3%
Cn1nnc(NC(=O)CSc2ccc(Cl)cc2)n1,-13%
Cc1nn2c(nc(N3CCOCC3)c3ccccc32)c1C=C(C#N)C#N,0%
CCn1c2ccccc2c2cc(NC(=O)c3ccccc3[N+](=O)[O-])ccc21,-4%
CCNC(=O)NC(=O)C(C)Sc1nnc(COc2ccccc2Cl)o1 (centres undefined),-10%
O=c1c2cc(N3CCOCC3)ccc2[nH]c(=S)n1CCCN1CCCCC1,-9%
Cc1cc(N)n(-c2ncnc3scc(-c4ccc(Cl)cc4)c23)n1,-8%
COc1ccc(/C=C(/C#N)C(=O)Nc2ccccc2C)cc1C(=O)O,-16%

# (further entries)
SMILES,HPGD block
Cn1nnnc1SCc1csc(Nc2ccccc2)n1,-11%
COc1cccc(C(=O)Nc2ccc3c(c2)C(=O)N(CCC(=O)O)C3=O)c1,-14%
CCOc1ccc(N(CC(=O)NCC2CCCO2)S(=O)(=O)c2ccc(Cl)cc2)cc1 (centres undefined),-2%
CCOC(=O)CCCCC(=O)c1[nH]c(=O)[nH]c1CSc1nc2ccccc2[nH]1,-34%
CCc1nc(SCc2cccnc2)[nH]c(=O)c1C,25µM*
Cc1cc(S(=O)(=O)N(Cc2ccc(C(C)(C)C)cc2)Cc2cccs2)ccc1-n1cnnn1,-20%
Cc1oc2nc(SCCCC(=O)NCCO)nc(N)c2c1C,-4%
O=C(CSc1nnc(Cc2cccs2)n1Cc1ccco1)Nc1cc(Cl)cc(Cl)c1,-20%
CCc1cc(-c2[nH]ncc2-c2ccc3c(c2)OCO3)c(O)cc1O,?
C[C@H](NC(=O)c1ccccc1Cl)C(=O)OCC(=O)N1CC2(C)CC1CC(C)(C)C2 (some centres undefined),-13%
Cc1c(C#N)c2ccccc2n1CC(=O)O,-10%
CCCn1nnc2ccccc2c1=O,-8%
CCOC(=O)c1cc(C#N)c(N)nc1C,-18%
CC(=O)NC(Cc1ccc(C)cc1)C(=O)NC1CCN(C(=O)c2cnccn2)CC1 (centres undefined),-2%
CCOC(=O)c1ccc(N2C(=O)CC(N3CCC(O)(c4ccc(Cl)cc4)CC3)C2=O)cc1 (centres undefined),-12%
C=CCn1c(C(C)NC(=O)c2ccc(C)cc2)n[nH]c1=S (centres undefined),-6%
COCCNc1cc(C)nc2ccccc12,3%
CCOC(=O)Cc1cc(=O)n2[nH]c(C)c(C#N)c2n1,-13%
CCCCC(=O)Nc1cc(NC(=O)CCCC)cc(C(=O)O)c1,-2%
CCN(CC)CCCCn1c(-c2ccccc2)nc2c(NC3CCCCC3)nc(C)nc21,?
COC(=O)[C@@H]1C[C@@]2(O)[C@@H](O)[C@@H](O)[C@@H](O)C[C@H]2N1C/C=C/c1ccccc1,-7%
COc1ccc(CNC(=O)c2csnn2)cc1,-19%
O=C(O)c1cc(Cl)c2c(c1)[C@@H]1C=CC[C@@H]1[C@H](c1ccc(S(=O)(=O)N3CCOCC3)cc1)N2,?
